Screening data (PubChem BioAssay)
AmpC nodet inh = Promiscuous and Specific Inhibitors of AmpC Beta-Lactamase (assay without detergent); Potency, µM (highest dose often 28.7 µM), without a hit: top-dose activity change, negative = inhibition; AmpC nitrocefin hydrolysis, absorbance 480 nm, no detergent; potencies from a single point are estimates; AID 585, 2007; P00811; hit rate 1.8% among 71,000; active = falling curve, for most hits resting on a single point; inconclusive = weak or doubtful change; inactive = flat or rising curve; note: % of control where 0% means no effect; about half of the hits show no inhibition at the top dose; a quarter of the inactives give rising signals
Target sequence (P00811 whole entry, looked up): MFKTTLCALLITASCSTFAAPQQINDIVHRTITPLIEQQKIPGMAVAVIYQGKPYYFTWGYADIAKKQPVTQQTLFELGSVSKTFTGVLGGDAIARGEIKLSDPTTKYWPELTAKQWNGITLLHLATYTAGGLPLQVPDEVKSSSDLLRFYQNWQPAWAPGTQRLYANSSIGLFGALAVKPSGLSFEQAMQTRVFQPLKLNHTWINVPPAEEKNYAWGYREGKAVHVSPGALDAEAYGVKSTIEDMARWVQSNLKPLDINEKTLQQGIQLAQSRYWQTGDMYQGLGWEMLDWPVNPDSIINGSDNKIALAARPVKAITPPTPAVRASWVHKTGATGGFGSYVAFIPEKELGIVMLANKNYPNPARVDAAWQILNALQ
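Enzyme, pH 7.0 phosphate. Compound titrations were pre-incubated with AmpC for 15 min at room temperature before nitrocefin (stock 800 uM) addition; product formation was recorded at 480 nm every 20 s for 4 min.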
Active calls of the source: *; [ ] = remark or other dose. Potency is the fitted concentration of half-maximal effect. Some of the compounds tested, so the mix of outcomes need not match the whole.

SMILES	AmpC nodet inh
COCC(=O)N1CCC2(CC1)CN(Cc1ccc(C#N)cc1)C2	28%
CCN(Cc1cc2cc(C)ccc2[nH]c1=O)C(=O)c1cccc(OC)c1	41%
O=c1c(-c2cc(F)cc(F)c2)nc2cnc(N3CCOCC3)nc2n1Cc1cccs1	2%
Cn1c(Cn2c(=O)sc3ccccc32)nnc1SCc1cccnc1	-8%
C[C@H](NC(=O)OC(C)(C)C)c1nnc(SCC(=O)c2ccc(Cl)cc2)o1	38%
Cc1sc(NC(=O)CSc2nnc(-c3ccc(F)cc3)o2)c(C#N)c1C	-13%
CCN(CC)c1ccc(NC(=O)c2ccc(Br)o2)cc1	-6%
O=C(NCc1ccccc1)N(Cc1cc2cc3c(cc2[nH]c1=O)OCCO3)CC1CCCO1 (centres undefined)	31%
O=C(Cn1cnnn1)OCC(=O)c1ccc(Cl)s1	13µM*
CCc1noc(C)c1C(=O)Nc1sc(C(=O)N(C)C)c(C)c1C(=O)OC	64%
CCOc1ccc(NC(=O)Nc2ccc3c(c2)N(C)C(=O)CS3)cc1	-14%
OCC1N=C(c2ccccn2)OC1c1ccccc1 (centres undefined)	-9%
Brc1cccc(-c2nnc(SCc3ccon3)n2-c2ccccc2)c1	46%
C/C=C/c1ccc(OCCN2C(=O)NC(C)(C)C2=O)c(OC)c1	15%
CC(OC(=O)C1CCN(S(=O)(=O)c2ccccc2)CC1)C(=O)Nc1ncc(Cl)cc1Cl (centres undefined)	40%
CCCCOC(=O)c1[nH]c2c(c1C)C(=O)CC(c1cc(OC)c(OC)c(OC)c1)C2 (centres undefined)	78%
CCOC(=O)Cc1csc(NC(=O)CCNS(=O)(=O)c2ccc3c(c2)CCC(=O)N3)n1	-2%
N#CNC1=NCN(Cc2ccccc2)CN1	-3%
CCOC(=O)N1CCN(C(=O)CCNS(=O)(=O)c2cc(Br)cnc2N)CC1	15%
O=C(O)c1ccccc1C(c1ccc(O)cc1)c1ccc(O)cc1	-6%
CCCC(=O)N(C)c1nnc(-c2ccc(OC)cc2)s1	61%
Cc1nc2ccccn2c1/C(O)=C1\C(=O)C(=O)N(CCN2CCOCC2)C1c1ccncc1 (centres undefined)	-8%
CCCCCc1c(C)nc(SCC(=O)O)[nH]c1=O	-1%
COc1ccc2cc(CCNC(=O)CC(C)(C)C)c(=O)[nH]c2c1	6%
CC1CCN(CCNC(=O)CCS(=O)(=O)c2ccc(Br)cc2)CC1	17%
O=C(O)C(c1ccccc1)N1CCCC1 (centres undefined)	2%
COC(=O)c1sc(S(=O)(=O)N2CCN(c3ccccc3)CC2)c(C(=O)OC)c1C	48%
COc1cccc2cc(-c3nnc(SCC(=O)Nc4nc(C)cs4)n3C)oc12	74%
Cc1cc(NC(=O)COC(=O)c2ccc(S(=O)(=O)N3CCCc4ccccc43)cc2)no1	-21%
Cc1nn(-c2ccccc2C(=O)O)c(=O)c2ccccc12	14%
CCOC(=O)Cn1c(C(=O)OCC)cc2sccc21	10%
Cc1nc2ccc(S(=O)(=O)NC(C(=O)NCc3ccco3)C(C)C)cc2s1 (centres undefined)	4µM*[single pt active]
Nc1nc2nonc2nc1N1CCCCC1	-12%
COc1ccc(S(=O)(=O)NCC2CCC(C(=O)NCc3ccco3)CC2)cc1 (centres undefined)	-2%
CCOC(=O)C(C(=O)Nc1nccs1)C1CCCCC1 (centres undefined)	-15%
Cc1cccc(N=C2NC(=O)CS2)c1	-15%
CCOC(=O)c1c(CN(CC)CC)oc2cc(Br)c(O)cc12	4µM*[single pt active]
O=C(CNC(=O)c1ccccc1)NCCc1nc2ccccc2[nH]1	13%
CC1CCN(S(=O)(=O)c2ccc3ncn(CC(=O)N(C)Cc4ccccc4)c(=O)c3c2)CC1	117%
Cc1ccc(-c2nc(CSCC(=O)N3CCN(c4ccccn4)CC3)c(C)o2)cc1	125%
CCOC(=O)c1ccc(NS(=O)(=O)c2ccc3[nH]c(=O)[nH]c3c2)cc1	-12%
C=C(C)Cn1c(CCNC(=O)C(C)C)nc2ccccc21	10%
O=C1CCCC(O)=C1C=NCCc1ccccc1	0%
CCOc1ccc(NC(=O)c2nnn(CC(=O)Nc3ccccc3OC)c2N)cc1	12%
O=C(CN1C(=O)CCS(=O)(=O)c2ccccc21)NCc1ccc(F)cc1	4%
Cc1ccc(S(=O)(=O)Nc2ccc(Br)cc2/C=N/n2cnnc2)cc1	24%
O=C(NCCC1=CCCCC1)C1CCN(S(=O)(=O)c2ccc(-n3cnnn3)cc2)CC1	12%
Cc1cnc(C(=O)Nc2ccc(-n3cnnn3)cc2)cn1	-9%

2 compounds drawn at random from those above:
SMILES	AmpC nodet inh
CCOC(=O)c1c(CN(CC)CC)oc2cc(Br)c(O)cc12	4µM*[single pt active]
O=C(CNC(=O)c1ccccc1)NCCc1nc2ccccc2[nH]1	13%

Next part.
SMILES	AmpC nodet inh
c1ccc2c(c1)ccc1cc3c(ccc4ccccc43)cc12	-18%
CN(CCNC(=O)C1CCN(S(=O)(=O)c2cnc[nH]2)CC1)Cc1ccccc1	1%
COc1ccccc1CNC(=O)C(CCSC)NS(=O)(=O)c1ccc2c(c1)oc(=O)n2C (centres undefined)	1%
COc1ccc(CC(NC(C)=O)C(=O)NC2CCN(c3nc(C)cc(C)c3C#N)CC2)c(OC)c1 (centres undefined)	149%
CCC(=O)N/C(N)=N/c1nc(C)c2cc(OC)ccc2n1	-2%
O=C(CCCCCNS(=O)(=O)c1ccc(Br)cc1)NCCN1CCOCC1	40%
COc1cccc(NC(=O)Cn2c(=O)oc3ccccc32)c1	1%
CC1(C)CC(CC(=O)O)(c2ccccc2)CCO1 (centres undefined)	-5%
CC1(C)CC(=O)C=C(Nc2ccccc2F)C1	-4%
O=C(CN(Cc1ccc2c(c1)OCO2)C(=O)c1cnsn1)NC1CCCC1	13%
O=C(CCC(=O)Nc1nnc(C2CCCCC2)s1)NCc1cccs1	-11%
CCc1ccc2[nH]c(=O)c(C(c3nnnn3CCOC)N3CCN(c4ccccc4F)CC3)cc2c1 (centres undefined)	91%
COCCn1nnnc1C(c1ccc(OC)cc1OC)N1CCN(c2ccccc2)CC1 (centres undefined)	108%
COc1cccc(C2CC(c3cccc(Br)c3)n3nc(N)nc3N2)c1 (centres undefined)	66%
Cc1cc(Nc2ncc(Cl)cc2Cl)n[nH]1	-9%
CCOc1ccc(OCC)c(NC(=O)C2CCCN(c3ncccn3)C2)c1 (centres undefined)	61%
CCCCCC(=O)Nc1cccc(-c2nc3ncccc3o2)c1	17%
CCN(CC)CC#CCOC(=O)[C@@](O)(c1ccccc1)C1CCCCC1	58%[12.8 µM]
Cc1cc(C)nc(NC(=O)c2c(-c3ccccc3Cl)noc2C)n1	9%
CCC1=NC(c2ccccc2Cl)N(O)C1(C)C (centres undefined)	4%
CCN(CC)C(=O)c1sc2nc(-c3ccccn3)[nH]c(=O)c2c1C	34%
CCCn1c(SCC(=O)Nc2ccccc2C(=O)OC)nc2c1c(=O)n(C)c(=O)n2C	62%
Cn1c(CNc2nc(-c3ccccc3)cs2)nnc1SCC(=O)N1CCc2ccccc21	90%
Cc1ccc(-c2nnn(CC(=O)N(Cc3ccco3)C(C(=O)NC(C)(C)C)c3cccs3)n2)o1 (centres undefined)	59%
CCOc1ccc(-n2c(SCC(=O)Nc3ccc(OC)cc3OC)nc3c(c2=O)SCC3)cc1	56%
O=C(c1ccccc1)N1CCn2c(nc3ccccc32)C1	10%
CN(C)Cc1c(O)ccc2oc(Cc3ccccc3)cc12	13%
CCCCCC(=O)OC(CN1CCCCC1)CN1CCCC1=O (centres undefined)	-1%
Cn1cccc1C(C(=O)NC1CCCCC1)N(C(=O)Cc1cccs1)c1ccc2c(c1)OCCO2 (centres undefined)	55%
CCOC(=O)Nc1cc(C)c(Cl)cc1OC	-3%
COc1cc(-c2nnc(SCC#CCO)o2)cc(OC)c1OC	7%
Cc1cc(=O)n2c(c1C#N)SC1CCCCC12O (centres undefined)	10%
Cn1c(=O)c2c(SCC(=O)N3CCOCC3)nc(CC(C)(C)C)nc2n(C)c1=O	8%
COc1ccc(-c2noc(Cc3ccccc3OC)n2)cc1	3%
Cc1ccc(C(C(=O)NC2CCCCC2)N(C(=O)c2csnn2)C2CC2)o1 (centres undefined)	10%
N#C/C(=C/N1CCOCC1)c1ccccc1	-2%
C[C@H](NC(=O)c1ccc(Cl)c(Cl)c1)c1ccc(-c2ccccc2)cc1	5%[5.75 µM]
COCCn1nnnc1C(c1ccc2ncccc2c1)N1CCN(c2ccccc2F)CC1 (centres undefined)	94%
CCCS(=O)(=O)c1c(S(=O)(=O)CCC)c2c(N)cccn2c1C(=O)c1ccc(F)cc1	32%
Cc1noc(C)c1S(=O)(=O)N1CCC(C(=O)N2CCN(C(=O)c3ccco3)CC2)CC1	14%
COc1ccccc1CNC(=O)C1CCCN(S(C)(=O)=O)C1 (centres undefined)	4%
CC(=O)Nc1ccc(S(=O)(=O)N2C3CCCC2CC(NC(=O)C2CCCCC2)C3)cc1 (centres undefined)	-2%
Nc1c(Br)cc(Br)c(N2CCCC2=O)c1Br	6%
O=C(Nc1ccc(N2C(=O)C3C4C=CC(C4)C3C2=O)cc1)Nc1cccnc1 (centres undefined)	-15%
Cc1ccc2cc3cc(C(=O)N(C)C4CCCCC4)oc3nc2c1	7%
CC(=O)NC(CCS(C)(=O)=O)C(=O)Nc1nc(C)cs1 (centres undefined)	-6%
O=C(O)c1ccccc1COc1ccccc1Cl	0%
CCOC(=O)c1c(NC(=O)c2cccs2)sc2c1CCN(C(=O)OCC)C2	15%
COCC(=O)N1CCC2(CC1)CN(Cc1cc(C(F)(F)F)cc(C(F)(F)F)c1)C2	8%
O=C(O)c1ccc(-c2ccccc2Cl)o1	-9%
O=c1cnc2cncnc2n1Cc1ccccc1	14%
Cc1ccc(C(=O)CSc2nnc(-c3ccccc3)n2-c2ccccc2)o1	45%
CC(NC(=O)c1ccccc1NC(=O)c1ccco1)C(=O)O (centres undefined)	5%
Cc1nn(-c2ccccc2)c2sc(C(=O)OCN3C(=O)c4ccccc4C3=O)cc12	2%
CCOC(=O)C1CCN(c2c(NCCCN(CC)Cc3ccccc3)c(=O)c2=O)CC1	-5%
COCc1nnc(NC(=O)c2ccco2)s1	-9%
CCn1c2ccccc2c2cc(NC(=O)N3CCOCC3)ccc21	34%
COCCn1c(SC(C)C(=O)Nc2ccc3c(c2)OCCO3)nc2ccccc2c1=O (centres undefined)	72%
Cc1ccc2c(c1)N(Cc1ccncc1)C(=O)C(C)O2 (centres undefined)	14%
COc1ccc(C(=O)NCCn2ccc3ccccc32)cc1OC	-6%

Additional compounds
SMILES	AmpC nodet inh
Cn1c(=O)c(CCc2ccccc2)nc2cnc(N3CCOCC3)nc21	5%
OCCN1CCN(c2nc(N3CCCCC3)nc(N3CCCCC3)n2)CC1	70%
CCCn1nnc(NC(=O)COc2ccc(Cl)cc2)n1	-4%
Cc1nnc(NC(=O)NCN2C(=O)C3C4C=CC(C4)C3C2=O)s1 (centres undefined)	-6%
COc1ccc(C(=O)N2CCC3(CCN(C(=O)Nc4ccccc4)CC3)CC2)cc1	64%
Cc1ccc(-n2c(CNc3ccc(F)cc3)nnc2SCC(=O)NCc2ccco2)cc1	73%
COc1ccccc1-c1nnc(SCC(=O)Nc2cc(C)on2)o1	102%
Cn1c(=O)n(Cc2ccccc2F)c(=O)c2c1nc1n2CCCN1CCc1ccccc1	25%
O=C1NC(=O)c2cc(NC(=O)C3CCCCC3)ccc21	-9%
Cc1ccccc1N(CC(=O)NCc1ccc2c(c1)OCO2)C(=O)CCC(=O)Nc1ccccn1	45%
COc1ccc(N(CC(=O)NCc2cccnc2)S(=O)(=O)c2c(C)nn(C)c2C)cc1	13%
CCOC(=O)N1CCC(N2C(=O)c3ccccc3C2Nc2ccccc2C)CC1 (centres undefined)	136%
CN(C(=O)CSc1nc2ccccc2n1CCc1ccccc1)C1CCS(=O)(=O)C1 (centres undefined)	107%
COc1ccc(CCC(C(O)C(F)(F)F)S(=O)c2ccccc2)cc1 (centres undefined)	8%
O=S(=O)(c1ccccc1)N1CCC2(CCN(Cc3nccs3)CC2)CC1	13%
COCCn1c(C)cc(C(=O)COC(=O)C23CC4CC(CC(O)(C4)C2)C3)c1C	101%
COC(=O)C1CCN(C(=O)COC(=O)CC(NC(N)=O)c2ccc(Cl)cc2)CC1 (centres undefined)	62%
CN(C)c1ncc2nc(-c3ccc(Cl)cc3)c(=O)n(CCC#N)c2n1	-2%
COC(=O)C1=CN(C)C=C(C(=O)OC)C1c1ccsc1	57%
COC(=O)C1C(O)=C(C=NCC(C)N=CC2=C(O)C(C(=O)OC)C(C)(C)CC2=O)C(=O)CC1(C)C (centres undefined)	28%

Entries above that have a furan ring, fused or not:
SMILES	AmpC nodet inh
CCN(CC)c1ccc(NC(=O)c2ccc(Br)o2)cc1	-6%
COc1cccc2cc(-c3nnc(SCC(=O)Nc4nc(C)cs4)n3C)oc12	74%
Cc1nc2ccc(S(=O)(=O)NC(C(=O)NCc3ccco3)C(C)C)cc2s1 (centres undefined)	4µM*[single pt active]
COc1ccc(S(=O)(=O)NCC2CCC(C(=O)NCc3ccco3)CC2)cc1 (centres undefined)	-2%
CCOC(=O)c1c(CN(CC)CC)oc2cc(Br)c(O)cc12	4µM*[single pt active]
Cc1ccc(-c2nnn(CC(=O)N(Cc3ccco3)C(C(=O)NC(C)(C)C)c3cccs3)n2)o1 (centres undefined)	59%
CN(C)Cc1c(O)ccc2oc(Cc3ccccc3)cc12	13%
Cc1ccc(C(C(=O)NC2CCCCC2)N(C(=O)c2csnn2)C2CC2)o1 (centres undefined)	10%
Cc1noc(C)c1S(=O)(=O)N1CCC(C(=O)N2CCN(C(=O)c3ccco3)CC2)CC1	14%
Cc1ccc2cc3cc(C(=O)N(C)C4CCCCC4)oc3nc2c1	7%
O=C(O)c1ccc(-c2ccccc2Cl)o1	-9%
Cc1ccc(C(=O)CSc2nnc(-c3ccccc3)n2-c2ccccc2)o1	45%
CC(NC(=O)c1ccccc1NC(=O)c1ccco1)C(=O)O (centres undefined)	5%
COCc1nnc(NC(=O)c2ccco2)s1	-9%
Cc1ccc(-n2c(CNc3ccc(F)cc3)nnc2SCC(=O)NCc2ccco2)cc1	73%
